# Source: PubChem BioAssay (National Center for Advancing Translational Sciences (NCATS))
# miR-21 reporter: raises the signal of a miR-21 reporter; HeLa miR-21 FLuc reporter, luciferase, 48 h; 340,000 tested, under 10 active; AID 2288; Potency, µM (series often up to 38.3 µM), for inactives: at the top dose reporter change, positive = more light; active = well fitted rising curve with a large enough effect; inconclusive = small, poorly fitted or top-dose-only effect; inactive = no such curve, though single readings can be large or run the other way;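 further: % of control where 0% means no effect; miR-21 action dims this reporter so a rising signal means less miR-21 action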
#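 HeLa cells endogenously expressing miR-21, stably carrying CMV-driven firefly luciferase with a downstream miR-21 binding site, 2000 cells/well. Titrations up to approximately 40 uM, 48 hours; luciferase luminescence read.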
# GLA inh pH 4.5: blocks human alpha-galactosidase A at pH 4.5; activity change, negative = inhibition, % at 105 µM; AID 1467; 230,000 tested, under 10 active; P06280; purified enzyme, 4-MU-alpha-Gal fluorescence, pH 4.5; inconclusive = small, poorly fitted or top-dose-only inhibition, or a rising curve; inactive = flat fitted curve, though single readings scatter; no compound was filed as active;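 further: 0% = full activity with enzyme and -100% = basal without enzyme; dose as in the result columns while the protocol names 77 µM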
# Target sequence (P06280 whole entry, looked up): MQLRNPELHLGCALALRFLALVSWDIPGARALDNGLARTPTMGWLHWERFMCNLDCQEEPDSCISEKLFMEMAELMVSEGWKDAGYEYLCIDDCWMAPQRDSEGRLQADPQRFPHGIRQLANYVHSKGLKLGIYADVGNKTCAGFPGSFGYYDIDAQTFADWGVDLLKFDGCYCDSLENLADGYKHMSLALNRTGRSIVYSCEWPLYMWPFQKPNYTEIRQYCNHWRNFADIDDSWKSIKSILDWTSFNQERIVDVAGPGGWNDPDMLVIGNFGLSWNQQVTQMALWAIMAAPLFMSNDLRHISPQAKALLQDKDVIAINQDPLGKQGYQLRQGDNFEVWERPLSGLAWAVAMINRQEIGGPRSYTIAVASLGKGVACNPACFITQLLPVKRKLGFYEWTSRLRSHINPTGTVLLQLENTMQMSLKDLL
# Rango-impB inh: Rango-importin beta binding inhibition; Q14974; Rango CFP/YFP FRET sensor + importin beta, 45 min; Potency, µM (doses to about 92.2 µM), for the others: at the highest dose inhibition of complex formation; hit rate 0.031% among 340,000; AID 540263; active = rising FRET ratio curve, often small or poorly fitted; inconclusive = mostly compound fluorescence or quenching in the first reads; inactive = flat curves in all reads;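 further: potency means the concentration at half of the fitted maximal effect; 0% = DMSO wells and 100% = buffer wells lacking importin beta; nearly all actives have a fitted effect of over 15% in size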
#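 Inhibition scored from the CFP 486 nm/YFP 530 nm FRET ratio 45 min after adding 0.125 microM importin beta to 50 nM Rango biosensor preincubated 5 min with compound (room temperature, PBS with DTT, Tween-20, BSA). No-importin wells as positive control.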
# Rango release inh: prevents RanGTP from dissociating the Rango-importin beta complex | Biochemical FRET Rango-importin beta, RanGTP-induced dissociation | hit rate 0.071% among 340,000 | Potency, µM (doses to about 46.1 µM), without a hit: at the top dose activity change, negative = inhibition | O95149+P62826 | AID 540253; active means falling FRET ratio curve, often poorly fitted, with flat reads before Ran was added; inconclusive means other falling curves, or compound fluorescence or quenching; inactive means flat or rising ratio curve;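 further: potency means the concentration at half of the fitted maximal effect; % of control where 0% means no effect; nearly all actives have a fitted effect of over 45% in size; -100% = wells without RanGTP and RCC1; the record marks most hits as doubtful in a second field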
#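 Quantitative HTS using a FRET biosensor: 0.1 uM Rango, 0.25 uM importin beta, 0.6 uM Ran, 2 mM GTP, 0.2 uM RCC1 final, PBS with DTT, Tween-20 and BSA. Post-read taken 45 min after Ran addition.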
# * hit, by the source's call; ? = inconclusive; · = no result given. This is a subset; count on the stated rates, not on these rows.
no. | molecule | Rango release inh | miR-21 reporter
1 | CCc1ccc(C2CC(c3cccc(Cl)c3)n3nc(N)nc3N2)cc1 (configuration not stated) | -15% | -10%
2 | COc1cc(Cl)c(C)cc1NCC(=O)Nc1cccc(S(=O)(=O)N2CCCC2)c1 | 17% | ·
3 | c1ccc(-c2nc3ccccc3[nH]2)nc1 | 8% | -42%
4 | CCCNC(=O)c1cccc(S(=O)(=O)N2CC3(C)CC2CC(C)(C)C3)c1 (configuration not stated) | 10% | ·
5 | CC(C)(C)N=Cc1c(O)ccc2oc3c(c12)CCCC3 | ? | 16%
6 | CC(=O)c1c(C)[nH]c(C(=O)OCCCCN2C(=O)c3ccccc3C2=O)c1C | 2% | 13%
7 | CN(C)CCCn1c(N)c(C#N)c2nc(C#N)c(C#N)nc21 | ? | 3%
8 | CN1Cc2ccccc2CC1CNCc1c(C(=O)N2CCCC2)nc2ccccn12 (configuration not stated) | 0% | -1%

no. | GLA inh pH 4.5 | Rango-impB inh
1 | -1 | -1.6%
2 | · | 0.0%
3 | 0 | 5.4%
4 | · | -0.3%
5 | · | ?
6 | -14 | 0.5%
7 | -4 | ?
8 | 2 | -0.7%

# Shown with each value named: entries from further up.
2	COc1cc(Cl)c(C)cc1NCC(=O)Nc1cccc(S(=O)(=O)N2CCCC2)c1
  Rango release inh: 17% | miR-21 reporter: · | GLA inh pH 4.5: · | Rango-impB inh: 0.0%
3	c1ccc(-c2nc3ccccc3[nH]2)nc1
  Rango release inh: 8% | miR-21 reporter: -42% | GLA inh pH 4.5: 0 | Rango-impB inh: 5.4%

# More entries.
no. | molecule | Rango release inh | miR-21 reporter
9 | COc1ccc(/C=C(/NC(=O)c2cccs2)C(=O)Nc2ccc(C)cc2)cc1OC | 7% | -15%
10 | O=C(NC1CC1)C1=C[C@@H](C2CC2)C[C@@H](OCCCCO)O1 | 10% | ·
11 | CCOC(=O)C1CCCN(CCC(=O)Nc2cccc(Cl)c2C)C1 (configuration not stated) | -9% | -4%
12 | O=C(NCCN1CCN(C(=O)C(c2ccccc2)c2ccccc2)CC1)C(=O)Nc1ccccc1 | 3% | -8%
13 | O=c1ccc(-c2ccc(S(=O)(=O)Nc3cccc(F)c3)o2)n[nH]1 | 0% | 0%
14 | COc1ccc(N(CC(=O)Nc2ccccc2C)S(=O)(=O)c2ccccc2[N+](=O)[O-])c(OC)c1 | 3% | -2%
15 | COc1ccc(S(=O)(=O)N/N=C\c2ccc(OC)c(COc3ccc(C)cc3[N+](=O)[O-])c2)cc1 | -17% | -5%
16 | CCOC(=O)C1CCCN(C(=O)Cc2c(F)cccc2Cl)C1 (configuration not stated) | 0% | -1%

no. | GLA inh pH 4.5 | Rango-impB inh
9 | 1 | 2.0%
10 | · | 6.3%
11 | · | 0.4%
12 | 3 | 0.7%
13 | · | 2.4%
14 | -8 | 1.0%
15 | -4 | -5.4%
16 | -4 | 1.5%

# Additional structures
no. | molecule | Rango release inh | miR-21 reporter
17 | O=C(O)C1(S(=O)(=O)c2ccc(Cl)cc2)CCC1 | 1% | 2%
18 | COc1cccc(-n2ccnc2SCC(=O)Nc2ccccc2)c1 | 1% | -10%
19 | Oc1ccc(Cl)cc1CNc1nccs1 | -13% | -12%
20 | COC(=O)c1ccc(NC(=O)c2ccc(NC(=O)c3ccco3)cc2)cc1 | -8% | 2%
21 | C/C(=C\C(=O)c1ccc(F)cc1)Nc1ccc(N2CCOCC2)cc1 | 0% | -11%
22 | O=C1NC(=O)C2(Br)Nc3ccc(Br)cc3C(=O)C2N1 (configuration not stated) | 5% | ·
23 | Brc1c(CSc2nnc(-c3ccco3)o2)nc2ccccn12 | -2% | -70%
24 | Cc1onc(-c2ccccc2)c1C(=O)OCC(=O)Nc1cccc(Cl)c1 | -3% | ·

no. | GLA inh pH 4.5 | Rango-impB inh
17 | · | -0.1%
18 | 5 | 8.3%
19 | · | -0.2%
20 | · | -2.5%
21 | 2 | -0.7%
22 | · | 3.5%
23 | 2 | -1.0%
24 | · | -1.2%

# Continued.
no. | molecule | Rango release inh | miR-21 reporter
25 | CC1SC(C)C(=O)N(CC(=O)Nc2ccc([N+](=O)[O-])cc2)C1=O (configuration not stated) | -14% | 1%
26 | O=C(CSc1nnc(CNC(=O)c2cccs2)o1)Nc1cccc(Cl)c1 | 1% | 2%
27 | COc1ccc(NC(=O)/C(=C\c2cccs2)NC(=O)c2ccco2)cc1 | -8% | -4%
28 | O=C(NCc1n[nH]c(=S)n1-c1ccc(Cl)c(Cl)c1)c1cccs1 | 0% | 4%
29 | O=P(O)(CCc1ccccc1)CN1CCCCC1 | -8% | -1%
30 | COc1ccc(S(=O)(=O)N2CCOCC2)cc1NC(=O)CSc1nnc2n1CCCCC2 | -3% | ·
31 | O=C(CCC(=O)OCc1cccc([N+](=O)[O-])c1)Nc1ccccc1Cl | 0% | -2%
32 | COc1cccc(C(=O)N/N=C(\CC(C)C)c2ccccc2)c1 | 3% | -20%

no. | GLA inh pH 4.5 | Rango-impB inh
25 | -28 | -4.1%
26 | · | -1.1%
27 | 0 | -2.4%
28 | 5 | 3.6%
29 | -7 | 4.3%
30 | · | 1.1%
31 | 5 | -0.3%
32 | 1 | 0.4%

# (listing goes on)
no. | molecule | Rango release inh | miR-21 reporter
33 | Cc1ccc(NS(=O)(=O)c2cccc(C(=O)NC3CC3)c2)c(C)c1 | -1% | ·
34 | O=C(c1cc(-c2ccc(Cl)s2)nc2ccccc12)N1CCOCC1 | -13% | ·
35 | Cc1cccc(N(C(=O)c2csnn2)C(C(=O)NCc2ccccc2)c2ccncc2)c1 (configuration not stated) | 1% | 0%
36 | CCOC(=O)Cc1csc(NC(=O)c2csc(C)c2)n1 | -11% | -5%
37 | Cc1ccc(CN2CCCCC2C(=O)Nc2ccc(Oc3cccnc3)cc2)o1 (configuration not stated) | -17% | 10%
38 | COc1ccccc1CNC(=O)CN1CCN(S(=O)(=O)c2cccs2)CC1 | 7% | 3%
39 | CC(C)(C)NC(=O)C(c1ccncc1)N(C(=O)c1csnn1)c1ccccc1 (configuration not stated) | -8% | 0%
40 | Cc1ccc(NC(=O)CNC(=O)c2cccc(Cl)c2)nc1 | -15% | ·

no. | GLA inh pH 4.5 | Rango-impB inh
33 | · | -2.3%
34 | · | ?
35 | · | -0.3%
36 | 5 | -0.5%
37 | · | -0.1%
38 | 1 | -0.2%
39 | 3 | -0.4%
40 | · | 4.4%

# Further records:
no. | molecule | Rango release inh | miR-21 reporter
41 | Cc1cc(C)nc(NS(=O)(=O)c2ccc(NC(=O)C(C)Oc3ccccc3F)cc2)n1 (configuration not stated) | 0% | 0%
42 | CSc1ccc(CN(C)CC(=O)Nc2ccccc2Br)cc1 | 1% | -5%
43 | COc1ccccc1/C=C1\SC(=S)N(CC(=O)NC2CCS(=O)(=O)C2)C1=O (configuration not stated) | -2% | -1%
44 | COc1ccc(C(=O)OCC(=O)N2CCN(C(=O)c3ccco3)CC2)cc1OC | -8% | ·
45 | O=C(NC(=O)c1cccc(F)c1)Nc1nc(-c2ccc(F)cc2)cc(C(F)(F)F)n1 | 10% | 1%
46 | Nc1ccccc1-c1nnn(CC(=O)Nc2ccc3c(c2)OCCO3)n1 | -1% | -9%
47 | CN(CC(=O)N1CCN(c2ccccc2)CC1)S(=O)(=O)c1cnc[nH]1 | -18% | -3%
48 | COC1=C/C(=C/c2c(N)n3c(nc2=O)sc2cc(S(C)(=O)=O)ccc23)C=CC1=O | ? | -25%

no. | GLA inh pH 4.5 | Rango-impB inh
41 | · | -3.0%
42 | -2 | 2.5%
43 | · | -0.9%
44 | · | 6.0%
45 | -28 | 0.0%
46 | · | -2.3%
47 | -13 | -1.0%
48 | -14 | ?

# The listing continues.
no. | molecule | Rango release inh | miR-21 reporter
49 | CCC(C)[C@H](NS(=O)(=O)c1ccc(C)cc1)C(=O)N1CCC(C(=O)N2CCC(C(N)=O)CC2)CC1 (some centres not stated) | ? | 0%
50 | Cc1cc(=O)n(C)c(=O)n1CCCCCOc1cccc([N+](=O)[O-])c1 | 4% | -3%
51 | O=C(c1ccccc1)C(O)c1ccccc1 (configuration not stated) | -7% | ·
52 | CCN1C[C@@H]2[C@@H]3C(=O)N(C)C(=O)[C@@H]3[C@](Cc3ccccc3)(C1=O)N2C(=O)c1ccc(Br)cc1 | -1% | ·
53 | Cc1ccc(/C=N/NC(=O)c2c[nH]c3ccccc23)o1 | ? | -29%
54 | O=C1[C@@H]2[C@H](Cc3ccc(O)cc3)N[C@]3(C(=O)Nc4ccccc43)[C@@H]2C(=O)N1c1ccc(F)cc1 | · | -1%
55 | Cc1cccc2cc(CN(Cc3cccs3)C3(c4nnnn4C4CCCC4)CCCC3)c(=O)[nH]c12 | -14% | 1%
56 | O=C(/C=C/c1ccccc1)OCCN1C(=O)c2ccccc2C1=O | -1% | -3%

no. | GLA inh pH 4.5 | Rango-impB inh
49 | · | 3.0%
50 | 8 | -1.2%
51 | · | -3.9%
52 | · | 6.9%
53 | -3 | -3.7%
54 | -2 | ·
55 | 7 | -3.9%
56 | · | 1.2%

# (listing goes on)
no. | molecule | Rango release inh | miR-21 reporter
57 | COc1ccc(CN(C)C(=O)c2cc(S(=O)(=O)Nc3ccccc3F)ccc2C)c(OC)c1 | -6% | 2%
58 | COc1cccc(CN(C(=O)Cc2c[nH]c3ccccc23)C(C(=O)NC2CCCCC2)c2cccs2)c1 (configuration not stated) | -12% | ?
59 | CC(C)N(Cc1nccn1C)C(=O)c1cc(COc2cccc(C(F)(F)F)c2)on1 | -6% | 14%
60 | CC(C)N(C(=O)COC(=O)c1ccc(Cl)s1)c1ccccc1 | 4% | ·
61 | c1ccc2c(NCC3CCCO3)nc(N3CCCCC3)nc2c1 (configuration not stated) | -2% | 5%
62 | Cc1cccc(N2C(=O)c3cccc4cccc(c34)C2=O)c1 | 20% | -12%
63 | Cc1ncc([N+](=O)[O-])n1CCOC(=O)Nc1ccc([N+](=O)[O-])cc1 | 15% | 0%
64 | Cc1[nH]c2ccc(C(=O)N3CCN(c4ccccc4Cl)CC3)cc2c1C | 0% | -4%

no. | GLA inh pH 4.5 | Rango-impB inh
57 | · | 0.9%
58 | 2 | 4.5%
59 | · | -0.1%
60 | · | 1.9%
61 | ? | ?
62 | · | 0.5%
63 | 2 | -2.6%
64 | · | 0.3%

# (further entries)
no. | molecule | Rango release inh | miR-21 reporter
65 | C=C(C)C1CC=C(C)/C(=N/NC(=O)c2cccc([N+](=O)[O-])c2)C1 (configuration not stated) | 2% | 3%
66 | CSc1ccccc1OCc1cc(C(=O)NCCC2=CCCCC2)no1 | 13% | -7%
67 | O=C(CNCC1CCCO1)Nc1ccccc1N1CCCCCC1 (configuration not stated) | -18% | -10%
68 | Cc1ccc(-n2c(C)cc(C(=O)COC(=O)C3=NNC(=O)CC3)c2C)cc1 | 3% | -11%
69 | CC12CCC(=O)N1C(C(=O)NNC(=O)COc1ccccc1F)CS2 (configuration not stated) | 14% | ·
70 | COc1cccc(NC(=O)C2C(c3ccccc3)C2(Cl)Cl)c1 (configuration not stated) | 12% | 7%
71 | Cc1ccc(C(C)(C)C)cc1S(=O)(=O)Nc1ncnc2sccc12 | -14% | ·
72 | CCCc1ccc(OCC(=O)Nc2cc(S(=O)(=O)CC)ccc2O)cc1 | 5% | -2%

no. | GLA inh pH 4.5 | Rango-impB inh
65 | -5 | -1.8%
66 | · | -2.0%
67 | -5 | 0.0%
68 | -10 | -2.3%
69 | · | -2.4%
70 | · | -3.6%
71 | · | -0.4%
72 | -9 | 1.8%

# Record cards (already shown).
# `CC12CCC(=O)N1C(C(=O)NNC(=O)COc1ccccc1F)CS2` (configuration not stated) reads Rango release inh = 14%; miR-21 reporter = ·; GLA inh pH 4.5 = ·; Rango-impB inh = -2.4%
# `Cc1ccc(C(C)(C)C)cc1S(=O)(=O)Nc1ncnc2sccc12` reads Rango release inh = -14%; miR-21 reporter = ·; GLA inh pH 4.5 = ·; Rango-impB inh = -0.4%

# Limited to Rango-impB inh, for some of the entries so far:
No. | Compound | Rango-impB inh
67 | O=C(CNCC1CCCO1)Nc1ccccc1N1CCCCCC1 (configuration not stated) | 0.0%
65 | C=C(C)C1CC=C(C)/C(=N/NC(=O)c2cccc([N+](=O)[O-])c2)C1 (configuration not stated) | -1.8%
